Source: PubChem BioAssay
RE007 growth inh: qHTS Assay for Inhibitors of the HIV-1 protein Vpr; S. pombe RE007 Vpr strain, BacTiter-Glo ATP luminescence, 24 h; control for the full effect not named in the record; Potency, µM (titrated, usually from 92.2 µM), inactives show at the top dose activity change, negative = less growth; 360,000 compounds, 0.21% hits; AID 651644, 2012; active = well fitted falling curve with a large enough effect; inconclusive = small, poorly fitted or top-dose-only effect; inactive = no such curve, though single readings can be large or run the other way;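 note: % is set by controls: 0 for no effect and ±100 for the full control effect; nearly all actives have a fitted effect of over 50% in size; the assay follows cell death caused by Vpr and the record does not say whether a fall means rescue or toxicity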
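Fission yeast RE007 carrying one integrated HIV-1 vpr copy, seeded at OD 0.01 in PMG+AL medium with 23 nL pinned compound. Grown 24 h at 30 degrees; viability read by BacTiter-Glo luminescence after 5 min.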
2A StopGo: High Throughput Screening for Foot and Mouth Disease Virus Antivirals; human cells with a luciferase reporter of 2A StopGo recoding; control for the full effect not named in the record; Potency, µM (series often up to 57.9 µM), for the others: top-dose signal change, negative = less light; 410,000 compounds, 1.2% hits; active = well fitted falling curve with a large enough effect; inconclusive = small, poorly fitted or top-dose-only effect; inactive = no such curve, though single readings can be large or run the other way; tested in HEK293T cells; note: % is set by controls: 0 for no effect and ±100 for the full control effect; nearly all actives have a fitted effect of over 45% in size; luciferase light after 4 h
Cruzain noTriton: qHTS Assay for Promiscuous and Specific Inhibitors of Cruzain (without detergent); Cruzipain (Trypanosoma cruzi), P25779; purified cruzain, Z-FR-AMC fluorescence, no detergent; Potency, µM, for inactives: max response, negative = inhibition, hits mostly inhibitors; 200,000 compounds, 2.3% hits; AID 1476, 2009;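 note: plate controls were enzyme without inhibitor for no effect and buffer without enzyme for full effect; nearly all actives have a fitted effect of over 40% in size; top concentration of the series not given in the record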
Target sequence (P25779 123-467 limits assumed): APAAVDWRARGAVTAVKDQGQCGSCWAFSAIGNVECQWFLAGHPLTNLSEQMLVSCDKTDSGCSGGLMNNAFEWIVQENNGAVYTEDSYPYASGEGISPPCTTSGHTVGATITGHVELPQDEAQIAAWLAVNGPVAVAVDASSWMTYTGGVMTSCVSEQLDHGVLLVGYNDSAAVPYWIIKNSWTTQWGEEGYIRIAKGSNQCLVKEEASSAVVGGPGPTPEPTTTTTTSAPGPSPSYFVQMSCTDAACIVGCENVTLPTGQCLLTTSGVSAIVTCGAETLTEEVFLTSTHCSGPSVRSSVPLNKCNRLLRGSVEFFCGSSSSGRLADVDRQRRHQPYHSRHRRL
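Purified cruzain at 1.5 nM, pre-incubated 15 min with compound at room temperature in 100 mM sodium acetate pH 5.5, 5 mM DTT, 0.00005% Triton X-100. Reaction started with 2 uM Z-FR-AMC; AMC fluorescence increase over 60 s gives rate.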
MARV entry inh: qHTS for inhibitors of binding or entry into cells for Marburg Virus. 300,000 compounds, 1.8% hits. Marburg virus pseudotyped entry inhibition, cell reporter; control for the full effect not named in the record; about a third of the inactives were read at about 46 µM. AID 540276, 2011. Potency, µM (top dose mostly 37.8 µM), inactives show at the top dose activity change, negative = inhibition, usual class: inhibitors; active = well fitted inhibition curve with a large enough effect; inconclusive = small, poorly fitted or top-dose-only effect, or effect the other way; inactive = flat fitted curve, though single readings scatter; tested in HEK293 cells; about a fifth of its hits are not listed in these tables; note: % is set by controls: 0 for no effect and ±100 for the full control effect; luciferase read-out
Cruzain Triton: qHTS Assay for Promiscuous and Specific Inhibitors of Cruzain (with detergent) | 200,000 compounds, 0.43% hits | purified cruzain, Z-FR-AMC fluorescence, 0.01% Triton | Potency, µM, without a hit: max response, negative = inhibition, actives largely listed as inhibitors | AID 1478, 2009 | Cruzipain (Trypanosoma cruzi), P25779;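 note: plate controls were neutral wells for no effect and buffer without enzyme for full effect; nearly all actives have a fitted effect of over 40% in size; top concentration of the series not given in the record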
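Detergent-containing run (0.01% Triton X-100) in acetate buffer pH 5.5 with 5 mM DTT: enzyme at 1.5 nM final, 15 min compound preincubation at room temperature, then 2 uM Z-FR-AMC substrate. Activity taken as 60 s fluorescence increase at 360/450 nm.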
LASV entry inh: qHTS for Inhibitors of binding or entry into cells for Lassa Virus. Lassa virus pseudotype entry inhibition, cell reporter; control for the full effect not named in the record. Potency, µM (series often up to 37.9 µM), inactives show top-dose activity change, negative = inhibition, actives largely listed as inhibitors. 300,000 compounds, 1.2% hits; active means well fitted inhibition curve with a large enough effect; inconclusive means small, poorly fitted or top-dose-only effect, or effect the other way; inactive means flat fitted curve, though single readings scatter; tested in HEK293 cells; note: % is set by controls: 0 for no effect and ±100 for the full control effect; nearly all actives have a fitted effect of over 50% in size; luciferase read-out
SARS PLP yeast: qHTS of Yeast-based Assay for SARS-CoV PLP. S. cerevisiae expressing SARS-CoV PLpro, growth rescue; control for the full effect not named in the record. Potency, µM (doses to about 32.9 µM), without a hit: at the top dose activity, positive = growth rescue. 330,000 compounds, 0.19% hits. AID 485353, 2010; active means well fitted rising curve with a large enough effect; inconclusive means small, poorly fitted or top-dose-only effect; inactive means no such curve, though single readings can be large or run the other way; note: 0% is about no effect; nearly all actives have a fitted effect of over 55% in size; growth read by luminescence after 48 h
NS1 function inh: qHTS Assay for Inhibitors of Influenza NS1 Protein Function. S. cerevisiae slowed by influenza A NS1, growth recovery by OD600. Potency, µM (series often up to 46.1 µM), without a hit: at the top dose activity, positive = more growth. 270,000 compounds, 0.4% hits; active means well fitted rising curve with a large enough effect; inconclusive means small, poorly fitted or top-dose-only effect; inactive means no such curve, though single readings can be large or run the other way; note: nearly all actives have a fitted effect of over 50% in size
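Growth recovery, yeast-based: influenza A NS1 expressed in S. cerevisiae causes slow growth, and suppressors are detected by OD600. The parent strain without NS1 is used as positive control.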
Numbers without * were called inactive; ? = inconclusive; . = not tested or not shown; [ ] = dose if it differs, or a comment. Unless noted, calls come from the whole dose curve; as a rule, active = well fitted curve in the direction sought with a large enough effect; inconclusive = small, poorly fitted or top-dose-only effect, or another doubt; inactive = no such curve, though single readings can be large; an effect the other way counts as inactive or inconclusive. Potency is the fitted concentration of half-maximal effect. Compounds were not picked by outcome, and some 4.6% of all compounds hit somewhere here.

SMILES	RE007 growth inh	2A StopGo	Cruzain noTriton	MARV entry inh	Cruzain Triton	LASV entry inh	SARS PLP yeast	NS1 function inh
COc1ccc(Cc2nnc(NC(=O)Cn3cnc4c3c(=O)n(C)c(=O)n4C)s2)cc1OC	1%	0%	-4%	1%	3.3%	10%	-1%	-15%
CC(=O)Nc1cccc(OCC(=O)Nc2cccc(S(=O)(=O)N3CCCC3)c2)c1	16%	-16%	.	6%	.	4%	4%	.
CC(C(=O)N1c2ccccc2CCc2ccccc21)n1nnc(-c2ccc(N(C)C)cc2)n1 (stereo not given)	13%	16%	?	?	-12%	?	-4%	27%
O=[N+]([O-])c1ccc(Cl)cc1NCC1CCCO1 (stereo not given)	-8%	-17%	.	.	.	.	1%	0%
Cc1ccc(-n2c(SCC(=O)NCc3ccco3)nc3c([nH]c4ccccc43)c2=O)cc1	0%	-1%	.	.	.	.	3%	3%
O=C(c1ccoc1)N1CCCC(CO)(CCCc2ccccc2)C1 (stereo not given)	8%	-23%	.	.	.	.	-4%	4%
CC(=O)c1ccc(NC(=O)C2=CC(c3ccco3)=NS(=O)(=O)N2C)cc1	-3%	-12%	.	.	.	.	-1%	8%
COc1ccc(OC)c(C(=O)CSc2nnc(Cc3cccs3)n2C)c1	6%	17%	-18%	9%	-0.1%	2%	-2%	-23%
Cc1ccccc1NC(=O)CSc1ncc2c(n1)-c1ccccc1N(C)S2(=O)=O	.	-16%	1%	.	-0.5%	-14%[46.1 µM]	.	.
CCNC(=O)c1cc2ccccc2o1	2%	2%	2%	2%	-2.5%	-10%	-43%	1%

An excerpt from above in order of count of non-hydrogen atoms, rising:
SMILES	RE007 growth inh	2A StopGo	Cruzain noTriton	MARV entry inh	Cruzain Triton	LASV entry inh	SARS PLP yeast	NS1 function inh
O=C(c1ccoc1)N1CCCC(CO)(CCCc2ccccc2)C1 (stereo not given)	8%	-23%	.	.	.	.	-4%	4%
Cc1ccc(-n2c(SCC(=O)NCc3ccco3)nc3c([nH]c4ccccc43)c2=O)cc1	0%	-1%	.	.	.	.	3%	3%
CC(C(=O)N1c2ccccc2CCc2ccccc21)n1nnc(-c2ccc(N(C)C)cc2)n1 (stereo not given)	13%	16%	?	?	-12%	?	-4%	27%

Later entries
SMILES	RE007 growth inh	2A StopGo	Cruzain noTriton	MARV entry inh	Cruzain Triton	LASV entry inh	SARS PLP yeast	NS1 function inh
O=C(CCC(=O)c1ccc(Oc2ccccc2)cc1)Nc1ccc(Cl)cc1Cl	-8%	.	-4%	?	-2.6%	4%	0%	-6%
O=C(NCCc1ccc(Cl)cc1)c1ccc2nc(CCc3ccccc3)oc2c1	.	-3%	6%	.	-0.4%	-1%[46.1 µM]	.	.
CCCN1CCC(=O)N(CCSc2ccc(NC(C)=O)cc2)CC1	9%	-10%	.	.	.	.	-1%	9%
COc1ccccc1CCNC(=O)C(=O)NCC1OCCCN1S(=O)(=O)c1cc(C)ccc1C (stereo not given)	-5%	?	.	?	.	-17%	-5%	-27%
CCCN1Cc2cccc(C(=O)Nc3ccc(C)cc3)c2C1=O	3%	-6%	-6%	5%	-4.0%	10%	1%	-2%
COc1ccc(CC(=O)Nc2ccc(-c3cn4cccc(C)c4n3)cc2)cc1OC	0%	-30%	10%	?	-2.5%	-25%	2%	4%
COc1cccc(/C=N/NC(=O)C[n+]2ccccc2)c1O	-5%	-2%	-14%	0%	-6.1%	-2%	?	9%
COc1cccc(C(C(=O)Nc2ccc(F)cc2)N(C(=O)Cn2nnc3ccccc32)C2CC2)c1 (stereo not given)	11%	.	7%	-28%	-4.0%	-4%	1%	?
O=C(CSc1nc2ccccc2nc1Cc1ccccc1)N1CCCc2ccccc21	.	16%	-14%	.	-0.7%	?	.	.
O=C(Cn1nnc(-c2ccccc2)n1)N/N=C/c1cccc([N+](=O)[O-])c1	3%	0%	-6%	-1%	-4.9%	?	6%	7%
O=C(CCC1CCCC1)NC1CCCCC1	6%	16%	9%	?	6.5%	0%	-3%	3%
COC(=O)C1C(=O)C2=C(CC1C)NC(=O)CC2c1ccc(F)cc1 (stereo not given)	14%	-8%	.	27%[46.1 µM]	.	2%	2%	.
Cc1ccc(C(=O)NNC(=O)C(C)Oc2ccc3ccccc3c2)o1 (stereo not given)	-2%	-9%	.	?	.	15%	-3%	.
COc1ccc(-c2n[nH]c(C)c2-c2cnn(-c3ccccc3)c2)c(O)c1C	20%	5%	-10%	-27%	-5.4%	-16%	-12%	13%
CCCN1CCN(CCCNC(=O)c2ccc3c(c2)NC(=O)c2ccccc2S3)CC1	3%	-21%	.	.	.	.	-3%	-3%
O=C(NCCc1c[nH]c2ccccc12)C(=O)NCC1OCCCN1S(=O)(=O)c1ccccc1 (stereo not given)	6%	?	25µM*	?	-3.6%	?	-2%	-6%
Cc1cccc(N2CCN(C(=O)C3CCN(C(=O)c4cc5sccc5n4C)CC3)CC2C)c1 (stereo not given)	.	?	?	?	-7.5%	.	.	.
CCCC1(c2ccccc2)NC(=O)N(CC(=O)Nc2cc(OC)cc(OC)c2)C1=O (stereo not given)	7%	-7%	.	-24%[46.1 µM]	.	?	-1%	7%
CC(C)(C)c1ccc(C(=O)NNC(=O)c2cccc(Br)c2)cc1	17%	18%	?	?	2.2%	?	8%	5%
CCc1ccc(/C=N/N2CCN(c3ccccn3)CC2)cc1	?	54%[activator]	.	.	.	.	0%	12%
COC(=O)C(C(=O)Nc1ncccn1)C1CCCCCC1 (stereo not given)	-12%	-14%	-6%	21%	0.8%	1%	-1%	-5%
Cc1ccccc1NC(=O)COC(=O)CC1CCCC1	-13%	1%	.	9%[46.1 µM]	.	6%	0%	.
Nc1ccc2oc(=O)c(-c3ccccc3)cc2c1	-16%	28%	.	.	.	.	-8%	2%
CCOC(=O)C1=C(C)Nc2nnnn2C1c1cccc(OC)c1OC (stereo not given)	0%	10%	-10%	10%	-2.2%	10%	-4%	0%
Cc1ccccc1NC(=O)C1CCN(S(=O)(=O)c2ccccc2)CC1	.	-10%	-6%	.	0.2%	-16%[46.1 µM]	.	.
Cn1c(SCC(=O)N2CCCc3ccccc32)ncc(C(=O)Nc2ccc(F)cc2)c1=O	.	-10%	9%	.	-0.3%	14%[46.1 µM]	.	.
Cc1ccc(Cn2nc(C)c(NC(=O)c3nn(C)cc3Cl)c2C)cc1	10%	-9%	3%	-18%	-2.6%	-2%	7%	6%
Cc1ccc(OCC(=O)Nc2ccc(Cl)cc2C(=O)c2ccccc2)cc1C	.	-11%	1%	.	2.2%	?	.	.
Cc1ccc(N(C(=O)CNC(=O)c2ccco2)C(C(=O)NC2CCCCC2)c2cccnc2)cc1F (stereo not given)	-13%	-6%	.	-8%[46.1 µM]	.	16%[46.1 µM]	2%	-15%
CCCCOC(=O)COc1cc(C)cc2oc(=O)c3c(c12)CCC3	16%	-8%	-7%	16%	-4.3%	-4%	-3%	-8%
CCOC(=O)N1CCN(C(=O)C2CCCN(S(=O)(=O)c3cccnc3)C2)CC1 (stereo not given)	-11%	-13%	0%	.	0.1%	.	-1%	-20%
O=C(NC1CCOc2ccccc21)C1CCCC1 (stereo not given)	-8%	-3%	.	1%[46.1 µM]	.	-8%[46.1 µM]	0%	9%
CCOC(=O)Cc1nc2ccccc2n(CC#N)c1=O	-7%	10%	.	4%[46.1 µM]	.	-10%[46.1 µM]	-2%	.
COc1ccc(/C=N/NC(=O)c2cccc([N+](=O)[O-])c2)cc1OC(=O)c1ccccc1	-7%	33%[activator]	25µM*	?	-0.8%	?	-4%	14%
COc1ccc(Cl)cc1NC(=O)Cn1ccn(Cc2ccc(C)cc2)c(=O)c1=O	.	6%	?	.	-6.7%	-10%[46.1 µM]	.	.
CC(=O)Nc1ccc(/C=C(\C#N)C(=O)NCc2ccccc2)cc1	-16%	-13%	-6%	?	-0.3%	7%	-17%	6%
CCOc1ccc(NC(=O)N2CCN(C(=O)c3nsc4ccccc34)CC2)cc1	.	-28%	7%	.	-4.7%	1%[46.1 µM]	.	.
O=C(NCCCN1CCCC1=O)c1cncc(Br)c1	-20%	13%	-6%	2%	1.2%	?	3%	0%
Cc1nc(NS(=O)(=O)c2ccccc2)sc1C(C)(C)C	6%	59%[activator]	19%	19%	-5.2%	-18%	-3%	?
COCCOc1ccc(C(F)(F)F)cc1NC(=O)c1ccc(C)cc1	4%	-11%	-4%	?	-2.5%	-1%	6%	-3%

Entries of single compounds, looked up by structure. Order of screens: RE007 growth inh, 2A StopGo, Cruzain noTriton, MARV entry inh, Cruzain Triton, LASV entry inh, SARS PLP yeast, NS1 function inh
COc1ccc(Cl)cc1NC(=O)Cn1ccn(Cc2ccc(C)cc2)c(=O)c1=O in the list: ., 6%, ?, ., -6.7%, -10%[46.1 µM], ., .
CCOC(=O)N1CCN(C(=O)C2CCCN(S(=O)(=O)c3cccnc3)C2)CC1 (stereo not given) in the list: -11%, -13%, 0%, ., 0.1%, ., -1%, -20%
CCOC(=O)Cc1nc2ccccc2n(CC#N)c1=O in the list: -7%, 10%, ., 4%[46.1 µM], ., -10%[46.1 µM], -2%, .
O=C(NC1CCOc2ccccc21)C1CCCC1 (stereo not given) in the list: -8%, -3%, ., 1%[46.1 µM], ., -8%[46.1 µM], 0%, 9%
CCOc1ccc(NC(=O)N2CCN(C(=O)c3nsc4ccccc34)CC2)cc1 in the list: ., -28%, 7%, ., -4.7%, 1%[46.1 µM], ., .
